Methyltransferases = Primary Screen for Target Class Profiling of Small Molecule Inhibitors of Methyltransferases. 25,000 compounds, 3.9% hits. calls only at 40 µM. purified enzyme, MTase-Glo SAH luminescence; hits give low values; active = -50% or lower on at least one of six enzymes; inconclusive = the cases between; inactive = as a rule above -30% on all six;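 note: enzymes were COMT GAMT GNMT HNMT NNMT and PNMT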
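Each enzyme was reacted with SAM and its substrate, with compounds tested once at 40 uM; SAH formed was read by MTase-Glo luminescence.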
Calls only; i = inactive; u = inconclusive; + = active, no number. % is set by controls: 0 for no effect and ±100 for the full control effect. Some of the compounds tested; the hit share may differ from the screen's.

SMILES	Methyltransferases
CCCn1c(=O)c2cc(Cl)ccc2n2c(SCC(=O)Nc3ccc4c(c3)OCO4)nnc12	i
CC(=O)Nc1ccc(OCC(=O)NCc2ccccc2C)nc1	i
Cc1noc2c(-c3cnn(C)c3)cc(-c3cccnc3)nc12	i
CCc1ccc(N2C(=O)c3cc(-c4ccccc4)nn3CC2(C)C(=O)NCCCOC)cc1 (stereo not given)	i
COc1cccc(S(=O)(=O)N2C[C@@H](Oc3cccnc3)C[C@H]2C(=O)NC2CC2)c1	i
COc1cc(OC)c(NC(=O)N2CCn3cccc3C2C)cc1Cl (stereo not given)	i
CC(C)OCCCn1c(=O)c2ccccc2n2c(CCC(=O)NCc3ccccc3)nnc12	i
CC(C)=CCC[C@](C)(OC1OC(COC2OCC(O)C(O)C2O)C(O)C(O)C1O)[C@H]1CC[C@]2(C)[C@@H]1[C@H](O)C[C@@H]1[C@@]3(C)CC[C@H](OC4OC(CO)C(O)C(O)C4OC4OC(CO)C(O)C(O)C4O)C(C)(C)[C@@H]3CC[C@]12C (stereo not given in full)	u
CCOc1ccc(N(C(=O)c2ccc(C)cc2)S(=O)(=O)c2ccc3c(c2)n(C)c(=O)n3C)cc1	i
CC(C)(C)Cn1c(N)nc2ccc(-c3[nH]c(C(C)(C)C)nc3-c3ccc(F)cc3)nc21	+
COc1ccc([C@H]2C[C@@H](O)[C@@H](O)[C@@H]2NS(=O)(=O)c2ccc(Cl)cc2)cc1	i
C=C1C(=O)O[C@H]2[C@H]1CC/C(C)=C/CC[C@@]1(C)O[C@@H]21	i
CN1CCCC1Cc1c[nH]c2ccc(CCS(=O)(=O)c3ccccc3)cc12 (stereo not given)	+
COc1ccc(N2C(=O)c3cc(C(C)(C)C)nn3CC2(C)C(=O)NC2CCCCCC2)cc1 (stereo not given)	i
COC(=O)c1ncn2c1C(=O)N(CCCc1ccccc1)C(C)(C(=O)NC1CCCCC1)C2 (stereo not given)	i
CCOc1ccc(CNC(=O)c2cc3n(n2)CC(C)(C(=O)NCc2ccc(F)cc2)N(C)C3=O)cc1OC (stereo not given)	i
Cc1cc2c(cc3n2CC(C)(C(=O)NC2CCCCCCC2)N(Cc2ccccc2F)C3=O)o1 (stereo not given)	i
O=C(N[C@@H]1CN(C(=O)Cn2c(=O)oc3ccccc32)CC[C@@H]1CO)c1ccccc1	i
Cn1c(=O)c2ccc(C(=O)NC3CCCC3)cc2n2c(=O)n(Cc3c(F)cccc3Cl)nc12	i
O=C(CCn1ccc2cc(S(=O)(=O)N3CCCCC3)ccc21)NCCc1c[nH]c2ccccc12	i
CSc1cccc(N2C(=O)c3cc(-c4cccs4)nn3CC2(C)C(=O)NC2CCCCCC2)c1 (stereo not given)	i
N[C@@H](Cc1cc(I)c(Oc2cc(I)c(O)c(I)c2)c(I)c1)C(=O)O	+
CCOc1ccc(CCN2C(=O)c3ccc(-c4ccco4)n3CC2(C)C(=O)NC2CCCC2)cc1 (stereo not given)	i
C=CC(C)(C)c1[nH]c2cc3c(cc2c1CC1NC(=O)C2CCCN2C1=O)C=CC(C)(C)O3 (stereo not given)	i
CCc1cccc(NC(=O)Cn2nc3n(C)c(=O)c4ccc(C(=O)NC5CCCCC5)cc4n3c2=O)c1	i
SMILES	Methyltransferases
O=C(NCc1ccnc2[nH]ccc12)c1cc(F)ccc1Br	i
CCCN1C(=O)c2ccc(-c3ccco3)n2CC1(C)C(=O)NC1CCCCCC1 (stereo not given)	i
CC1CCC(NC(=O)CCc2nnc3n(Cc4ccc(Cl)cc4)c(=O)c4ccccc4n23)CC1 (stereo not given)	i
CCOC(=O)c1cc2n(n1)CC(C)(C(=O)NCCC(C)C)N(c1ccc(F)cc1C)C2=O (stereo not given)	i
C=C(NC(=O)C(=C)NC(=O)c1csc(C2=NC3c4csc(n4)C4NC(=O)c5csc(n5)C(C(C)(O)C(C)O)NC(=O)C5CSC(=N5)C(=CC)NC(=O)C(C(C)O)NC(=O)c5csc(n5)C3(CC2)NC(=O)C(C)NC(=O)C(=C)NC(=O)C(C)NC(=O)C(C(C)CC)NC2C=Cc3c(C(C)O)cc(nc3C2O)C(=O)OC4C)n1)C(N)=O (stereo not given)	u
CC(C)NC(=O)c1ccc2c(=O)nc3c(-c4cccc(F)c4)n[nH]n3c2c1	i
COc1cccc(NC(=O)Cn2c(=O)oc3cc(S(=O)(=O)N4CC(C)CC(C)C4)ccc32)c1 (stereo not given)	i
Cn1ccnc1CN1CC2(CCN(C(=O)C3CC3)CC2)CC1C(=O)O (stereo not given)	i
COc1ccc(C(C)NC(=O)c2c(C)sc3ccn(C)c(=O)c23)cc1 (stereo not given)	i
C=CCc1cccc(C=NNC(=O)CN2CCN(Cc3ccccc3)CC2)c1O	i
CC(=O)N1c2ccccc2C2(O)CC3C(=O)NC(CC(C)C)C(=O)N3C12 (stereo not given)	i
O=c1cc(N2CCOCC2)oc2c(N3CCN(c4ccccn4)CC3)nccc12	i
CC(=O)N[C@@H](C(=O)O[C@H]1CCC(C)(C)[C@@H]2CCC3=C(COC3=O)[C@@]12C)C(C)C	i
CNC(=O)[C@@H]1CN(C(=O)c2ccc(OC)nc2OC)C[C@H]1c1n[nH]c(C)n1	i
CSCCC(NC(=O)c1ccccc1NC(=O)c1ccc(C)cc1)C(=O)O (stereo not given)	i
CCc1csc(CNc2cc(C3CC(O)C3)nc(N)n2)n1 (stereo not given)	i
O=C1c2ccccc2OCC2(CCN([S+](=O)([O-])c3ccccc3)C2)N1[S+](=O)([O-])c1ccccc1 (stereo not given)	i
CN(C)[C@@H]1CN(Cc2ccccn2)CC[C@@H]1CO	i
CCc1csc(CNC(=O)c2ccc(N(C)Cc3cnn(C)c3)nc2)n1	i
COc1ccccc1CN1C(=O)c2nc3ccccc3n2CC1(C)C(=O)NC1CCCC(C)C1C (stereo not given)	i
CCc1cc2c(cc3n2CC(C)(C(=O)NC2CCCCC2)N(c2ccc(OC)c(OC)c2)C3=O)s1 (stereo not given)	i
Cc1cccc(C(=O)N2CCOC(CCCc3ccccc3)C2)n1 (stereo not given)	i
Cc1ccc(CN2CCNC(=O)C2CC(=O)N(CC(C)C)CC(C)C)cc1 (stereo not given)	i
CN(C)CCN(Cc1ccccc1)C(=O)c1cc(-c2ccc(F)cc2)n2nc(C(C)(C)C)cc2n1	i
NC(=O)OCC(COC(N)=O)c1ccccc1	i
SMILES	Methyltransferases
COc1cccc(Nc2c(C(N)=O)cnc3c(C)cc(S(=O)(=O)c4cccc(C(=O)N(C)C)c4)cc23)c1	u
O=C(CCc1nnc2n(Cc3ccc(F)cc3)c(=O)c3ccccc3n12)NC1CCN(Cc2ccccc2)CC1	i
O=C1CCN(Cc2c[nH]c3ccccc23)CCCC(C(=O)NCc2ccccc2)CCN1 (stereo not given)	i
CNC(=O)[C@@H]1CN(C(=O)c2ccc(OC)cc2C)C[C@H]1COC	i
CC(C)CCNC(=O)C1c2c(n(C)c3ccccc23)SCC(=O)N1c1ccc(C(C)C)cc1 (stereo not given)	i
Cc1ccc(NS(=O)(=O)c2ccc3[nH]c(=O)[nH]c3c2)c(C)c1	i
CCOCCCNC(=O)CNC(=O)C1(C)Cn2c(cc3ccccc32)C(=O)N1C (stereo not given)	i
COc1ccc(OC)c([C@@H]2C[C@H](NC(C)=O)C[C@H](Cc3ccccc3)O2)c1	i
Cn1c(=O)c2ccc(C(=O)NC3CCCC3)cc2n2c(SCc3ccc(Cl)cc3)nnc12	i
CC1(C(=O)NC2CCCCC2)Cn2c(ccc2-c2ccco2)C(=O)N1CCc1cccs1 (stereo not given)	i
O=C(Cn1nc2n(Cc3ccc(F)cc3)c(=O)c3ccccc3n2c1=O)c1ccc(F)cc1	i
CCC(C)(C)C(=O)NCCc1noc(-c2ccccc2)n1	i
COc1cc(O)c2c(=O)c(O)c(-c3ccc(O)c(O)c3)oc2c1	u
Cc1ccc(NC(=O)Cn2nc3n(C(C)C)c(=O)c4ccc(C(=O)NC5CCCCC5)cc4n3c2=O)cc1	i
CC(C)Cn1c(=O)c2ccccc2n2c(SCC(=O)NC3CCCCC3)nnc12	i
COC(=O)c1cc2n(n1)CC(C)(C(=O)NC1CCC(C)CC1)N(Cc1ccc(OC)cc1)C2=O (stereo not given)	i
COc1ccc(CCNC(=O)c2cc3n(n2)CC(C)(C(=O)NCc2ccc(C)cc2)N(C)C3=O)cc1OC (stereo not given)	i
Cc1cc2c(cc3n2CC(C)(C(=O)NC2CCCCCC2)N(c2cccc(Cl)c2C)C3=O)o1 (stereo not given)	i
COc1ccc(OC)c(NC(=O)N2Cc3c(sc4c3CCCC4)-n3cccc3C2c2ccccc2)c1 (stereo not given)	i
CCc1cc2c(cc3n2CC(C)(C(=O)NC2CCCCC2)N(Cc2ccc(F)cc2)C3=O)s1 (stereo not given)	i
Cc1cc(C(F)(F)F)nc(CNc2cc(C3CC(O)C3)nc(N)n2)n1 (stereo not given)	i
O=C(NCCc1ccco1)c1cc2n(n1)CCCN(Cc1cccc(F)c1)C2=O	i
Cc1nn(-c2ccccc2)c2c1C(C)N(C1CCN([S+](=O)([O-])c3c(C)noc3C)C1)C2=O (stereo not given)	i
CC(=O)Nc1ccc(Nc2nc3c(S(=O)(=O)c4ccc(C)cc4)nnn3c3ccc(Cl)cc23)cc1	i
C[C@@H]1CCC2C(C)(C)[C@H](O)[C@H](O)C[C@]2(C)[C@@]12Cc1c(O)cc3c(c1O2)CN(CCCC(=O)O)C3=O (stereo not given in full)	i

Arranged by molar mass (rising): part of the list above
SMILES	Methyltransferases
COc1cc(O)c2c(=O)c(O)c(-c3ccc(O)c(O)c3)oc2c1	u
CNC(=O)[C@@H]1CN(C(=O)c2ccc(OC)cc2C)C[C@H]1COC	i
CC(C)Cn1c(=O)c2ccccc2n2c(SCC(=O)NC3CCCCC3)nnc12	i
Cc1nn(-c2ccccc2)c2c1C(C)N(C1CCN([S+](=O)([O-])c3c(C)noc3C)C1)C2=O (stereo not given)	i
Cn1c(=O)c2ccc(C(=O)NC3CCCC3)cc2n2c(SCc3ccc(Cl)cc3)nnc12	i
COc1ccc(OC)c(NC(=O)N2Cc3c(sc4c3CCCC4)-n3cccc3C2c2ccccc2)c1 (stereo not given)	i

Reformatted: entries from further up
| structure | Methyltransferases |
| --- | --- |
| COC(=O)c1cc2n(n1)CC(C)(C(=O)NC1CCC(C)CC1)N(Cc1ccc(OC)cc1)C2=O (stereo not given) | i |
| COc1cc(O)c2c(=O)c(O)c(-c3ccc(O)c(O)c3)oc2c1 | u |
| Cc1nn(-c2ccccc2)c2c1C(C)N(C1CCN([S+](=O)([O-])c3c(C)noc3C)C1)C2=O (stereo not given) | i |
| C[C@@H]1CCC2C(C)(C)[C@H](O)[C@H](O)C[C@]2(C)[C@@]12Cc1c(O)cc3c(c1O2)CN(CCCC(=O)O)C3=O (stereo not given in full) | i |

(further entries)
SMILES	Methyltransferases
O=C(NCc1ccc(Cl)cc1)c1ccc2c(=O)nc3c(-c4ccc(F)cc4)n[nH]n3c2c1	i
CCOC(=O)c1cccc(NS(=O)(=O)c2ccc3[nH]c4c(c3c2)CCCC4)c1	i
CCOc1ccccc1CN1C(=O)c2cc3occc3n2CC1(C)C(=O)NC1CCCCC1C (stereo not given)	i
Cc1cccc(-c2nc(Cn3c(-c4ccc(F)cc4)nc(C)c(CCO)c3=O)c(C)o2)c1	i
C=C1C(O[C@@H]2O[C@H](CO)[C@@H](O)[C@H](O)[C@@H]2O)CC2C(C)(C)C(O)CCC2(C)C1CC/C(C)=C\CO (stereo not given in full)	+
C[C@@H](NC(=O)c1ccc(C#Cc2cccc(F)c2)cn1)C(C)(C)O	i
CC(O)c1cc(C(=O)N[C@@H](C)Cn2ccc(-c3ccc(C#N)c(Cl)c3)n2)n[nH]1 (stereo not given in full)	i
CCCNC(=O)N1CC[C@@H]2[C@H]1C(=O)N(c1cccc(F)c1)C(=O)N2Cc1cccs1	i
CC(=O)c1ccc(O[C@@H]2OC[C@@H](O)[C@H](O)[C@H]2O[C@]2(CO)O[C@H](CO)[C@@H](O)[C@@H]2O)c(O)c1	i
COCCNc1nc2c(-c3cccc(Br)c3)nnn2c2ccccc12	i
COc1ccc(C(=O)N2CCOC[C@H](Oc3cccnc3)C2)cc1	i
COCC(=O)N[C@H]1C[C@@H](CO)N(Cc2scnc2C)C1	i
CC1(C(=O)NC2CCCC2)Cn2c(cc3ccccc32)C(=O)N1C1CCCCCC1 (stereo not given)	i
Cc1nn2c(c1-c1ccccc1C(C)C)N(C(=O)c1cccnc1)CCC2	i
c1ccc(CCNc2nc3c(-c4ccccc4)nnn3c3ccccc23)cc1	i
O=C(CCn1ccc2cc(S(=O)(=O)N3CCCCC3)ccc21)NCc1ccc2c(c1)OCO2	i
O=c1c2ccccc2n2c(=O)n(Cc3ccccc3)nc2n1Cc1ccccc1	i
CCC1CC2C(C)=CC3CCCCC3C2(C)C2(OC(=O)C(C)(O)OC2=O)O1 (stereo not given)	i
CC(C)NCC(O)COc1ccc(COCCOC(C)C)cc1 (stereo not given)	i
Cn1nccc1C(=O)N1CCCC(c2nc(-c3ccccc3)no2)CCNC(=O)CC1 (stereo not given)	i
CCC(CC)n1c(=O)n(CCCc2cccnc2)c2cc(C(=O)O)cnc21	i
CCCn1c(=O)c2ccc(C(=O)NC3CCCCC3)cc2n2c(=O)n(CC(=O)Nc3cccc(C)c3)nc12	i
CCOc1ccc(CCNC(=O)C(CC)n2ccc3cc(S(=O)(=O)N4CCCCC4)ccc32)cc1 (stereo not given)	i
COc1ccc(CC(=O)NC[C@@H]2CC[C@H]3C[C@@H]2C3(C)C)cc1	i
CCCCC1CCN(CCCC(=O)c2ccccc2C)CC1	i
Fc1ccc(-c2nnn3c2nc(NCc2ccccc2)c2ccccc23)cc1	i
O=C(Cn1nc2n(c1=O)CCCC2)NCCc1ccc(Cl)cc1	i
Cc1ccc(CNC(=O)CCc2nnc3n(CCC(C)C)c(=O)c4ccccc4n23)cc1	i
CCc1ccc(N2C(=O)c3cc(-c4ccco4)nn3CC2(C)C(=O)NC2CCCCCC2)cc1 (stereo not given)	i

Screening results as filed in PubChem.
